Assay outcomes deposited in PubChem BioAssay by ICCB-Longwood Screening Facility, Harvard Medical School.
Ab BasE inh – blocks the Acinetobacter baumannii siderophore enzyme BasE; purified BasE, fluorescence polarization binding displacement; inhibition, % (concentration not given with the values); 84,000 compounds, 0.1% hits;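 active means both replicates above 25% with normal brightness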;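 further: 0% = negative plate control signal and 100% = positive plate control signal; stock transfer was 100 nL into about 30 µL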
KSHV LANA nucl – LANA-nucleosome interaction inhibition; 51,000 compounds, 0.3% hits; AID 720717; z-score (test concentration not listed); FITC-LANA1-23 / chicken nucleosome fluorescence polarization; stronger effect = lower value;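 active means both repeat wells score below -2 in polarization z-score versus plate sample wells, excluding overly bright wells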;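 further: 100 nL library stock added to about 30 µL; numbers are from one replicate; some results filed as inactive read as strong as hits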
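Test system: purified chicken nucleosomes with FITC-labelled LANA N-terminal peptide (1-23); Input: 240 nM purified chicken nucleosomes (480 nM peptide binding sites), final; Medium: TEN-BT buffer, pH 7.5; Timing: 10–45 min, room temperature; Technique: fluorescence polarization, 480 nm excitation, 535 nm parallel and perpendicular emission; Replication: duplicates.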
* = called active by the depositor; . = no result given; & = joins results of further samples.

SMILES	Ab BasE inh	KSHV LANA nucl
COC1CCCC(C(=O)Nn2c(C3CC3)nc3ccccc3c2=O)C1 (stereo not given)	-1.1	0.56
COc1ccc(-c2nc(C#N)c(N3CCCCC3)o2)cc1	0.4	.
O=C(NCCc1c[nH]c2ccccc12)c1ccc2c(=O)n3c(nc2c1)CCCCC3	0.9	.
O=C1NN=C2c3ccccc3CCC12 (stereo not given)	2.0	-1.4
FC(F)C(F)(F)COC1OCCOC1OCC(F)(F)C(F)F (stereo not given)	-1.4	.
COc1ccc(-c2nc3ccccc3n2C)cc1OC	-11	-0.37
COc1cc(OC)cc(C(=O)Nc2nc3ccc4sc(C)nc4c3s2)c1	1.6	-0.12
Nc1ccc2nc(SCC(=O)O)sc2c1	1.5	-0.18
O=c1cc(CSc2nnc(Nc3ccccc3)s2)nc2sccn12	2.3	.
N#Cc1cnn2cc(CCCO)c(C(F)(F)F)nc12	.	-1.6
O=C(N/N=C\c1ccc(F)cc1)C(c1ccccc1)N1CCOCC1 (stereo not given)	1.2	0.28
OC(CN1CCN(CC(O)C(F)(F)F)CC1)C(F)(F)F (stereo not given)	.	1.9
Nc1cc2c(cc1C(=O)O)OCO2	0.1	.
O=C(O)/C=C/c1ccc(-n2ccnc2)cc1	-0.7	.
COc1ccc(C(=O)Nc2ccc3nc(N4CCN(C)CC4)cc(C)c3c2)c(OC)c1	-4.8	-0.31
Cc1cc(C(=O)OCc2ccc(Br)cc2)c(C)o1	1.2	.
CCN(CC)CCN(C)Cc1c(F)cccc1F	-0.8	-0.12
ONC(=Nc1ccccc1)c1cccnc1	3.1	0.34
CC1CCCCN1C(=O)CSc1nc2ccccc2c(=O)[nH]1 (stereo not given)	0.8	-1.5
O=C1c2ccccc2NC2(C(=O)N(Cc3ccccc3)c3ccccc32)N1C1CC1 (stereo not given)	-2.3	.
CCc1cc2c(cc(C(=O)OC)n2Cc2cccc(OC)c2)s1	0.3	2.8
S=c1nccc(-c2ccc(-c3cccs3)s2)[nH]1	1.9	.
CCOc1ccc(-c2cccc(NC(=O)Cc3ccc(OC)c(OC)c3)c2)nn1	-3.5	1.1
O=C(c1cc2ccc3cccnc3c2[nH]1)N1CCN(c2ccc(F)cc2)CC1	1.5	.
O=S(=O)(Nc1n[nH]c(C(F)(F)F)n1)c1ccccc1	3.9	.
COc1cc([C@@H]2c3cc4c(cc3C(O[C@@H]3O[C@@H]5CO[C@@H](c6cccs6)OC5[C@H](O)[C@H]3O)C3COC(=O)[C@@H]32)OCO4)cc(OC)c1O (stereo not given in full)	0.7	0.69&0.48
COCCNc1nnc(SCC(=O)c2cc(C)n(-c3ccc4c(c3)OCO4)c2C)s1	2.2	.
C=CCNC(=O)c1ccccc1NC(=O)c1ccccc1NS(C)(=O)=O	-0.6	-0.29
NC(=S)c1cnn2c(C(F)(F)F)cc(C(F)(F)F)nc12	0.1	.
Cc1ccc(N2CC34C=CC(O3)C(C(=O)O)C4C2=O)cc1 (stereo not given)	1.6	.
NC(=O)c1sccc1Cl	4.6	-0.18
CCOC(=O)C1=C(O)/C(=C/c2cccs2)SC1=NC(=O)c1ccc(C)cc1	0.3	.
O=C(Nc1ccccc1)C(=S)NC1CCCC1	3.0	0.52
Nc1nc2cc(S(=O)(=O)N3CCOCC3)ccc2o1	1.4	.
S=c1[nH]nc(Cc2ccsc2)n1Cc1ccccc1	-1.8	.
CN1C(=O)CC(N2CCN(Cc3ccccc3)CC2)C1=O (stereo not given)	0.3	1.1
CC(=O)N(Cc1cccnc1)Cc1cc2cc3c(cc2n2nnnc12)OCO3	-1.8	-0.29
O=C(O)CCC(=O)c1ccc2c(c1)CCCC2	0.7	.
CCCCC(=O)N1CCN(c2ccc(C(=O)CC)cc2F)CC1	-0.1	-1.4
Cc1ccccc1/C=N/NC(=O)Cc1cn2ccsc2n1	-3.0	.
Cc1ccc(CNC(=O)c2ccc3nc[nH]c3c2)cc1	-1.5	0.81
Nc1cc(N)c2cc(-c3ccccc3)oc2c1	2.9	-0.72
Cc1cc(S(=O)(=O)NCCC2=CCCCC2)ccc1-n1cnnn1	-0.1	1.1
COc1ccc(OCCc2nnc(N)s2)cc1	0.5	1.3
O=C(O)c1ccccc1SCc1ccc2c(c1)OCO2	3.6	.

Some of these compounds in order of formula weight, highest first.
SMILES	Ab BasE inh	KSHV LANA nucl
CCOC(=O)C1=C(O)/C(=C/c2cccs2)SC1=NC(=O)c1ccc(C)cc1	0.3	.
Cc1cc(S(=O)(=O)NCCC2=CCCCC2)ccc1-n1cnnn1	-0.1	1.1
CCCCC(=O)N1CCN(c2ccc(C(=O)CC)cc2F)CC1	-0.1	-1.4
Cc1ccccc1/C=N/NC(=O)Cc1cn2ccsc2n1	-3.0	.
O=C(O)CCC(=O)c1ccc2c(c1)CCCC2	0.7	.
Nc1cc(N)c2cc(-c3ccccc3)oc2c1	2.9	-0.72

(further entries)
SMILES	Ab BasE inh	KSHV LANA nucl
CCNc1nc(N)c(C(=O)c2ccc(Cl)s2)s1	-3.8	-0.14
O=C(CCC1CCCC1)Nc1ccc2c(c1)OCO2	-0.8	-1
CCOC(=O)C1C(=O)N(C(=O)c2cncc(Br)c2)CC1c1ccccc1 (stereo not given)	0.1	-0.57
CC1(C)Cc2c(c(N3CCCCC3)nc3sc(C#N)c(N)c23)CO1	1.5	-0.53
CCCCN(Cc1cc2ccccc2[nH]c1=O)S(=O)(=O)c1ccccc1	-0.3	0.57
Cc1ccc(-c2nn(C)c(=O)c3ccccc23)cc1CNC(=O)CSc1nc2ccccc2s1	1.4	.
C=CCn1c(=NC(=O)c2ccco2)sc2cccc(OCC)c21	1.2	-1.5
NS(=O)(=O)c1cc2c(cc1Cl)NC(C(Cl)Cl)NS2(=O)=O (stereo not given)	0.7&-12	0.43&0.23&0.35&0.33
Nc1nnc(CSCc2ccccc2)s1	-3.3	2.3
CNC(=O)CCc1nc(-c2ccc(OC)cc2)no1	-1.0	0.44
O=C1/C(=C/c2ccco2)CCC1C1CCCC1 (stereo not given)	-0.7	0.2
S=C(Nc1ccccc1)N1CCCN1c1ccccc1	2.1	.
Cc1nc2ccc(S(=O)(=O)N3CCCCC3)cc2s1	0.4	-0.12
Brc1cccc(-c2nnc3sc(CNCc4ccc5c(c4)OCO5)cn23)c1	-1.4	1
COC(=O)c1ccc(/C=C(\C#N)C(=O)NC2CCCCC2)cc1	0.4	.
Cc1cc(C)n(C(=O)Nc2ccc(Cl)cc2)n1	-0.6	.
CCc1ccc(S(=O)(=O)N(C)C2CCS(=O)(=O)C2)cc1 (stereo not given)	1.8	.
Cc1cc(C)c2cc(C(=O)N3CCN(c4ncccc4C(F)(F)F)CC3)[nH]c2c1	-0.6	.
Cc1cccc(NC(C)C(=O)N/N=C/c2ccc(O)cc2)c1 (stereo not given)	4.5	0.36
O=C1CCCN1c1nc2ccccc2s1	0.4	.
NNC(=O)CN1C(=O)COc2ccccc21	-0.7	.
Cc1nc(NC2CCN(Cc3nnnn3Cc3ccc4c(c3)OCO4)CC2)[nH]c(=O)c1C	0.7	-0.81
Cc1ccc(CSc2ncnc3sc4c(c23)CCC4)cc1	-3.0	.
CCCc1[nH]n(-c2nc3ccccc3s2)c(=O)c1C=NCC1CCCO1 (stereo not given)	3.0	-0.31
COc1ccc(C2C3CCc4ccccc4C3=NN2CCOC(=O)C2CC2)cc1 (stereo not given)	-0.1	.
Cc1cc(C(=O)CN2C(=O)CCC2=O)c(C)n1Cc1ccccc1	0.8	.
NCc1n[nH]c(=S)n1-c1cccc(C(F)(F)F)c1	1.7	0.16
CC(N)c1ccc(-n2ccnc2)cc1 (stereo not given)	0.6	.
C=CCNC(=S)N1CCc2c([nH]c3ccccc23)C1C(F)(F)F (stereo not given)	0.7	.
CCC(SC1=NCCS1)C(=O)Nc1nnc(-c2ccccc2OC)s1 (stereo not given)	0.2	-0.15
CCOc1cccc(=O)c2c(C)n(Cc3ccco3)c(C)c12	-27	1.5
O=C(O)C1CCS(=O)(=O)C1 (stereo not given)	1.1	-0.13
CCn1c2ccccc2c2cc(NC3=NC(C)(C)CS3)ccc21	0.2	.
N#C/C(=C\c1cn(CC(=O)NCC2CCCO2)c2ccccc12)C(=O)N1CCCC1 (stereo not given)	-1.5	-0.17
Cc1ccc2ncc(C(=O)N3CCN(c4ccccc4)CC3)c(=O)n2c1	0.9	0.17
O=C(CNCc1ccco1)Nc1cccc(OC(F)(F)F)c1	-2.6	0.042
COC(=O)c1cc(S(=O)(=O)NCc2cccs2)c[nH]1	-2.4	0.068
Cc1ccc(S(=O)(=O)N2CCN(CC(=O)N3N=C4/C(=C/c5cccs5)CCCC4C3c3cccs3)CC2)cc1 (stereo not given)	0.9	.
O=C(c1cnc(NS(=O)(=O)c2ccccc2)nc1)N1CCOCC1	1.6	0.39
NC(=S)Nn1c(CCC(=O)O)ccc1-c1cccs1	1.3	-0.77
CN(C)C(=O)NCc1cccnc1	-0.2	0.78
N#C/C(=C/Nc1ccc(I)cc1)c1nc2ccccc2o1	-0.4	0.17
COc1ccc(NC(=O)N(Cc2c[nH]c3ccccc23)C(C)C)c(OC)c1	1.1	0.3
N#Cc1cccc(OC(=O)c2ccccc2)c1	1.2	0.81
O=C1S/C(=C/c2ccccc2F)C(=O)N1CN1CCCCC1	1.7	.

Compound profiles (already shown):
Listed for `C=CCNC(=O)c1ccccc1NC(=O)c1ccccc1NS(C)(=O)=O` = Ab BasE inh = -0.6; KSHV LANA nucl = -0.29
Listed for `N#C/C(=C/Nc1ccc(I)cc1)c1nc2ccccc2o1` = Ab BasE inh = -0.4; KSHV LANA nucl = 0.17

The results go on.
SMILES	Ab BasE inh	KSHV LANA nucl
CN1CCC2(N3CCOCC3)C(C1)N=NN2c1cc(C(F)(F)F)cc(C(F)(F)F)c1 (stereo not given)	2.3	.
O=C1CN(CC(=O)Nc2ccc3c(c2)OC(F)(F)O3)CCN1	1.8	.
O=C(Nc1ccc(N2CCCCC2)cc1)c1ccc2c(c1)OCO2	-0.2	0.54
S=C(Nc1cccc(Cl)c1)N1CCc2ccccc2C1	-1.8	.
Cc1ccc(S(=O)(=O)N2CCC(C(=O)OC(C)C(=O)NCc3ccc4c(c3)OCO4)CC2)cc1 (stereo not given)	2.0	.
CC1(C)Cc2c(sc(NC(=O)C(c3ccccc3)c3ccccc3)c2C#N)CO1	2.1	.
O=C(c1cc(F)cc2c1OCOC2)N1CCN(C2c3ccccc3-c3ccccc32)CC1	0.2	-1.2
COC(=O)c1sc2ccccc2c1NC(=O)c1ccc(S(=O)(=O)N(C)c2ccccc2)cc1	1.4	.
O=C(NN1CC(=O)N(C(c2ccccc2)c2ccccc2)C1=O)c1ccncc1	1.6	-0.44
CC(C)(C)c1cc(NC(=O)Nc2ccc(Cl)cc2Cl)no1	0.3	-0.42
O=C(CCS(=O)(=O)c1ccccc1)OCc1csc(-c2ccccc2)n1	-1.2	.
COc1cccc(OC)c1C(=O)N[C@@H]1C(=O)N2[C@@H]1SC(C)(C)[C@@H]2C(=O)O	-0.4	-0.3&-0.26
O=C(CC(c1ccc(Cl)cc1)S(=O)(=O)c1ccccc1)c1ccco1 (stereo not given)	-1.9	0.43
O=C(NC1CCCCC1)c1nnc(Cc2cccc(F)c2)o1	1.3	0.29
O=C1CCCCCN1Cc1nnc(SCc2cnc(-c3ccccc3)s2)n1-c1ccccn1	-1.8	.
O=C(c1cccnc1)N1C(=O)c2cccc3c(S(=O)(=O)N4CCCCC4)ccc1c23	1.4	-0.07
CN(c1ccnc(C(=O)N2CCOCC2)c1)S(=O)(=O)c1ccccc1	-0.7	-0.28
CC(C)CNC(=O)C1C2C=CC(C2)C1C(=O)O (stereo not given)	1.3	-0.34
N#Cc1ccc(Cl)cc1NC(=O)CSc1nnc(-c2ccc(OC(F)F)cc2)n1N	1.6	.
Cc1cc(C)nc(N(C#N)Cc2ccccc2)n1	0.1	-1.1
Cc1ccc(-c2csc(-c3nnn(-c4ccc(C)c(C)c4)c3N)n2)cc1	0.8	-0.6
NC(=O)N/N=C/c1ccc(N2CCOCC2)cc1	0.1	.
O=S(=O)(/C=C/c1ccccc1)N1CCN(Cc2coc(-c3cccs3)n2)CC1	-1.8	.
Cc1cc(C)c(C(=O)CN2C(=O)NC(CC(C)C)C2=O)cc1C (stereo not given)	2.5	.
CC(=O)N=Nc1c2[nH]c3ccccc3nc-2c2ccccc12	1.6	-1.2
CCN(C(=O)c1ccc2c(c1)OCO2)C12CC3CC(CC(C3)C1)C2	-1.4	.
c1ccc(COc2ccc(Oc3ncnc4c3oc3ccccc34)cc2)cc1	0.9	.
COc1ccc2c(c1)SC1=NC(=O)C(Cc3ccccc3)C(=O)N12 (stereo not given)	1.1	.
O=C1CC(Cc2ccccc2)C(=O)N1c1ccc(Cl)cc1 (stereo not given)	1.1	-0.4
Cc1nc2nc(CC(=O)N3CCC(C)CC3)nn2c(C)c1Cl	2.4	0.24
CC(=O)Nc1sc2c(c1CN1CCN(S(=O)(=O)c3ccccc3)CC1)CCCC2	-1.8	.
N#C/C(=C(/O)CSc1nc2ccccc2o1)c1nc2ccccc2[nH]1	-1.7	.

2 of the compounds above, with values under each structure.
The line under a structure holds: Ab BasE inh, KSHV LANA nucl
- N#Cc1ccc(Cl)cc1NC(=O)CSc1nnc(-c2ccc(OC(F)F)cc2)n1N
 : 1.6, .
- Cc1cc(C)nc(N(C#N)Cc2ccccc2)n1
 : 0.1, -1.1

Only part of the results is shown (hit frequency here may not be typical).
